Source: PubChem
CtBP-E1A inh: qHTS Assay for Inhibitors of the CtBP/E1A Interaction | activity change, % (no concentration beside the values) | AlphaScreen GST-E1A/His-CtBP binding, 1536-well; active compounds read low; control for the full effect not named in the record | 340,000 tested, 0.49% active; in the data active means activity change below about -65%; inconclusive means about -30% to -65%; inactive means above about -30%; also: % is scaled to controls: 0 for no effect and ±100 for the full control effect
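Steps: dispense buffer (Tris pH 8.0, NaCl 300 mM, TCEP 1 mM, BSA, Tween 20); add 5X protein mix (GST-E1A, His-CtBP, 125 nM each); pin 23 nL compound; 2 h at 37 °C, dark; add 5X beads (50 ug/mL); 1 h; read.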
TRPML1 blocker: qHTS for Inhibitors of the Human Mucolipin Transient Receptor Potential 1 (TRPML1). 390,000 tested, 0.02% active. TRPML1-inducible cells, Ca2+ dye fluorescence, FDSS; active compounds read low; inhibition of EC80 agonist-evoked calcium signal. AID 624415, 2012. activity change, negative = inhibition, % (no concentration beside the values); in the data active means activity change below about -50%; inconclusive means about -30% to -50%; inactive means above about -30%;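 also: stimulus is agonist 54-4 at its EC80 concentration; % is scaled to controls: 0 for no effect and ±100 for the full control effect; compound concentration not given in the record; the text of the record puts the active cut at -80%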
Target sequence (Q9GZU1 whole entry, looked up): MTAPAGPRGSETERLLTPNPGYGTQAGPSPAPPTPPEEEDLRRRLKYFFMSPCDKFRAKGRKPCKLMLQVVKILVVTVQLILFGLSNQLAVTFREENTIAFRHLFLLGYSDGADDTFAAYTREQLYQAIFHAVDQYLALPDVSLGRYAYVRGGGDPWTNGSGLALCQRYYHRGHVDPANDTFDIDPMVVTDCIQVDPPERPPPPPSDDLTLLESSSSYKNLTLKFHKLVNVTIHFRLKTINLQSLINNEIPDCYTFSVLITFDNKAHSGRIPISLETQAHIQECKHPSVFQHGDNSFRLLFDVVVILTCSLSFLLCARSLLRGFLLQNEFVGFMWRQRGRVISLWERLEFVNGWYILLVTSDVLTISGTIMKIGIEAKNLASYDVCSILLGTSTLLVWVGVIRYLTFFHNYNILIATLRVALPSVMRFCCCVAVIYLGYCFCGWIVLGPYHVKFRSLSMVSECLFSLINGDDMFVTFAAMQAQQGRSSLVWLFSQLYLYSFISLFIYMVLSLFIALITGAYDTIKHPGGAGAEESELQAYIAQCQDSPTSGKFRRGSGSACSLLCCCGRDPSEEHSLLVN
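Tet-induced TRPML1-DL cells loaded with Ca8 no-wash calcium dye were read kinetically on FDSS. Compound addition was followed by EC80 agonist 54-4 (4 uM final); inhibition was read over 110 s.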
TRPV1 PAM: HTS Assay for Compounds that Act as Potentiators of the Vanilloid Receptor 1. Transient receptor potential cation channel subfamily V member 1 (Homo sapiens), Q8NER1. TRPV1-expressing cells, Fluo-8 calcium influx, capsaicin EC20 potentiation; host cell line not named in the record; control for the full effect not named in the record. potentiation, % at 8.33 µM. 320,000 tested, 0.02% active; active means potentiation above 80%; inconclusive means 30% to 80%; inactive means below 30%; also: 0% is about no effect
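Cells expressing TRPV1 were dye-loaded with Fluo-8 and read kinetically: 10 s baseline, 3 min after compound (agonist portion), then 2 min after EC20 capsaicin (allosteric enhancer portion). Calcium-bound dye fluorescence at 480/520 nm.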
TRPML1 agonist: qHTS for Agonists of the Human Mucolipin Transient Receptor Potential 1 (TRPML1); TRPML1-expressing cells, Ca2+ dye fluorescence, FDSS; host cell line not named in the record; reference of the full effect not given here; 410,000 tested, 0.12% active; Mucolipin-1 (Homo sapiens), Q9GZU1; AID 624414, 2012; activation, % (test concentration not listed); in the data active = activation above about 50%; inconclusive = about 30% to 50%; inactive = below about 30%; also: 0% is about no effect; the text of the record puts the active cut at 80%
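Agonist activity was taken from a 110 s kinetic Ca2+ dye read on the FDSS after pinning compounds onto TRPML1-DL cells. The cells were seeded at 1,500/well with Tet inducer, incubated about 16 h, then dye-loaded at room temperature.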
Six1-Eya2 blk: qHTS Assay for Inhibitors of the Six1/Eya2 Interaction; AlphaScreen GST-Six1/His-Eya2 binding, biochemical; active compounds read low; control for the full effect not named in the record; activity change, % (no concentration beside the values); 360,000 tested, 0.56% active; in the data active = activity change below about -65%; inconclusive = about -30% to -65%; inactive = above about -30%; also: % is scaled to controls: 0 for no effect and ±100 for the full control effect
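GST-Six1 + His-Eya2 (5X stock: 250/500 nM); Tris pH 8.0, 300 mM NaCl, 0.05% BSA, 0.02% Tween 20; GSH donor/Ni acceptor beads; 1 h 37 °C dark; AlphaScreen readout.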
D2 PAM: Beta-Arrestin HTS for Positive Allosteric Modulators of the Human D2 Dopamine Receptor: Potentiators; D(2) dopamine receptor (Homo sapiens), P14416; DiscoveRx D2 beta-arrestin cells, luminescence, 90 min; 100% = 57 uM dopamine signal; potentiation, % (concentration not given with the values); 360,000 tested, 0.23% active; active = potentiation of 50% or more; inconclusive = 30% to 50%; inactive = 30% or less;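 also: compound concentration not given in the record; tested on top of an EC20 dose of dopamine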
Target sequence (P14416 whole entry, looked up): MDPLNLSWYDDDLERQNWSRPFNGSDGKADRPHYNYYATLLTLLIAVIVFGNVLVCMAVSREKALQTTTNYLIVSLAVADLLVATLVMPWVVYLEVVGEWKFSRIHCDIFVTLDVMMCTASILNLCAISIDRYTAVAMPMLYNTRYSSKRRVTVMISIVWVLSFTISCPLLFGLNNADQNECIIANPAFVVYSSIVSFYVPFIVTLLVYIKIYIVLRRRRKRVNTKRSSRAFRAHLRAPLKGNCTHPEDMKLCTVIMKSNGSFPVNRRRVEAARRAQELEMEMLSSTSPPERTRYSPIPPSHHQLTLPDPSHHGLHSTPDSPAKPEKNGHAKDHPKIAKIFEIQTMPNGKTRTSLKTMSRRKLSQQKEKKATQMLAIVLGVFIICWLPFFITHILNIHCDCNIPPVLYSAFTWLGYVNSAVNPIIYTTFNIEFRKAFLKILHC
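D2 cells co-treated with compound plus 50 nM dopamine (EC20) for 90 min at 37 deg C to detect potentiation. Beta-arrestin recruitment was read as enzyme-fragment luminescence after 1 h at ambient temperature. Full response was set by 57 uM dopamine.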
The depositor's hits bear a star; ? = inconclusive; nt = no result given.

Short forms – A = CtBP-E1A inh; B = TRPML1 blocker; C = TRPV1 PAM; D = TRPML1 agonist; E = Six1-Eya2 blk; F = D2 PAM
COc1ccc(-c2nnc(SCC(=O)N3CCCC3)o2)cc1
  A: 4.0; B: -12.4; C: 9.6; D: -0.5; E: 0.7; F: -0.6

COc1nc(Nc2ccc(O)cc2)nc(OC(C(F)(F)F)C(F)(F)F)n1
  A: 22.7; B: 19.9; C: -11.2; D: 0.4; E: 10.6; F: 6.3

Cc1cccc(C(=O)Nc2nnc(SCC(=O)NCc3ccco3)s2)c1
  A: 5.6; B: 18.8; C: nt; D: -0.6; E: -2.6; F: 10.6

COc1cc(NC(=O)CN2C(=O)CSc3ccc(S(=O)(=O)N4CCCC4)cc32)cc(OC)c1
  A: nt; B: -4.0; C: -15.6; D: 0.2; E: ?; F: -8.2

C=CCNc1nc(NCC)nc(N2CCOCC2)n1
  A: 8.3; B: 40.1; C: 2.1; D: -0.5; E: 8.0; F: 3.2

Cc1ccccc1Cn1cc(S(=O)(=O)CC(=O)N2CCCCC2)c2ccccc21
  A: -10.4; B: -2.7; C: -8.2; D: -0.3; E: -0.9; F: 0.6

COc1ccc(C(=O)/C=C/c2ccc(O)cc2)c(O)c1C/C=C(\C)CCC=C(C)C
  A: -12.5; B: nt; C: nt; D: nt; E: -16.8; F: -28.6

CN(C)CCCN(C(=O)COc1ccccc1)c1nc2c(F)cccc2s1
  A: 1.2; B: nt; C: -19.2; D: nt; E: 0.0; F: -30.6

CCN(CC(=O)Nc1ccc2c(c1)OCCO2)S(=O)(=O)c1cccs1
  A: 4.0; B: -0.8; C: 0.8; D: 0.5; E: 1.0; F: 9.1

COc1ccc2ccccc2c1/C=N/NC(=O)c1sc(N)c(C#N)c1C
  A: -2.4; B: -6.9; C: -4.8; D: -0.2; E: -6.9; F: 24.4

O=C(NCc1ccccc1)c1csc2c1CCCCC2
  A: 4.7; B: 1.2; C: 25.3; D: 1.6; E: 6.7; F: -1.2

Cc1nc2c(Br)c3nc(C(F)(F)F)[nH]c3c(Br)c2[nH]1
  A: -17.6; B: -17.5; C: 4.5; D: 3.0; E: -22.6; F: 1.3

O=C(Cc1ccc(F)cc1)Nc1cccc2cccnc12
  A: 0.0; B: 22.0; C: -9.5; D: 0.9; E: 16.8; F: -6.2

CCC(C)(C)n1nnnc1C(c1ccc(OC)cc1)N1CCN(C(=O)c2ccco2)CC1 (stereo unspecified)
  A: 0.0; B: 7.5; C: 1.2; D: -1.3; E: 8.3; F: -7.0

CC(C)CNC(=O)CN1C(=O)NC2(CCc3ccccc32)C1=O (stereo unspecified)
  A: -4.3; B: -3.5; C: -5.8; D: -0.2; E: 6.2; F: -8.2

O=C(Nc1ccc(N2CCN(Cc3ccccc3)CC2)cc1)c1ncn[nH]1
  A: -0.5; B: 4.2; C: 9.2; D: -0.5; E: -3.8; F: -11.2

CCCCC1=CC2=CC(=O)C(C)(OC(=O)CC)C(=O)C2=CN1CCCCO (stereo unspecified)
  A: -5.4; B: 11.7; C: 19.6; D: 0.5; E: 2.7; F: 11.8

COc1ccc(S(=O)(=O)N(C)c2ccc(C(=O)N3CCC(C(N)=O)CC3)cc2)cc1OC
  A: 0.7; B: -1.1; C: 2.3; D: 0.0; E: 9.0; F: -5.8

COC(=O)C(Cc1csc2ccc(Cl)cc12)NC(=O)c1ccc(Cl)cc1 (stereo unspecified)
  A: 3.9; B: -4.2; C: -28.1; D: 1.7; E: 7.1; F: 0.9

O=C(NCCc1cn2ccccc2n1)c1cc(COc2c(F)cccc2F)on1
  A: 4.0; B: 7.4; C: -5.5; D: 1.9; E: -4.6; F: -3.8

COC1CCCN(C(=O)c2ccc3nc(Cc4cccc(Cl)c4)oc3c2)C1 (stereo unspecified)
  A: -0.6; B: 22.4; C: -10.3; D: 0.6; E: -10.3; F: -10.3

CC(=O)Nc1ccc(S(=O)(=O)NNC(=O)c2cccc([N+](=O)[O-])c2)cc1
  A: -1.5; B: -7.1; C: 5.3; D: 0.1; E: 6.2; F: -14.0

O=C(NC(=S)NCc1ccccc1)C1CCCCC1
  A: 4.0; B: 3.3; C: -2.2; D: 0.8; E: 1.8; F: -5.5

COCCNC(=O)Cn1nc(C(F)(F)F)cc1C
  A: 13.5; B: 11.0; C: -18.4; D: -0.1; E: 3.5; F: -2.2

O=C(Nc1cc(S(=O)(=O)N2CCOCC2)ccc1N1CCOCC1)C1CCCO1 (stereo unspecified)
  A: nt; B: -18.0; C: -2.4; D: 0.7; E: -9.8; F: -31.8

O=C1OCCN1c1c(-c2ccccc2)c(-c2cccs2)nc2c(-c3ccccc3)cccc12
  A: 11.7; B: 35.2; C: ?; D: -0.7; E: 11.2; F: -17.9

O=C(COc1ccc2ccccc2c1)Nc1cccnc1Cl
  A: 6.1; B: -4.1; C: 6.8; D: 0.0; E: -3.2; F: -3.1

CCN(CC(=O)Nc1ccc(NC(C)=O)cc1)C(=O)c1ccc(=O)[nH]c1
  A: -2.8; B: 5.4; C: -2.3; D: -0.8; E: 2.1; F: -5.9

Cc1ccc(CNC(=O)C2CN(S(C)(=O)=O)c3cc(Cl)ccc3O2)cc1 (stereo unspecified)
  A: 2.2; B: 35.4; C: -5.1; D: 1.9; E: 2.4; F: -9.6

COCCN1CCN(C(=O)c2cc(COc3ccc(F)cc3F)on2)CC1
  A: -11.3; B: 14.8; C: -27.2; D: 0.2; E: -3.8; F: 2.5

O=C(Nc1ccc(Cl)cc1)N(Cc1cccs1)Cc1cccs1
  A: 9.2; B: -1.6; C: 7.5; D: 0.8; E: 7.7; F: -10.7

COc1ccc(S(=O)(=O)N2CCOC2CNC(=O)C(=O)NCCc2ccccc2OC)cc1C (stereo unspecified)
  A: 3.8; B: -6.4; C: -22.0; D: 0.0; E: 3.1; F: -4.3

CCOc1ccc(C(C)C)cc1S(=O)(=O)N1CCN(C(=O)c2ccco2)CC1
  A: 1.0; B: 0.8; C: -28.8; D: 0.6; E: 3.9; F: 2.5

Nc1c(Cl)cc(C2=NCCn3c2c2ccccc2[n+]3[O-])cc1Cl
  A: nt; B: 9.4; C: -22.0; D: -0.7; E: -13.7; F: 2.2

Cc1ccc(-c2cc(C(F)F)n3ncc(C(=O)Nc4c(C)nn(Cc5c(Cl)cccc5Cl)c4C)c3n2)cc1
  A: 3.1; B: -2.1; C: 5.7; D: -0.4; E: -0.4; F: -1.8

Cc1ccc(S(=O)(=O)N(C)C)cc1NC(=O)c1cncc(Br)c1
  A: -17.8; B: -2.1; C: ?; D: 0.0; E: 3.3; F: -8.1

O=[N+]([O-])c1cc2c(cc1/C=N/Nc1nc(N3CCCC3)nc(N3CCCC3)n1)OCO2
  A: -6.0; B: -1.3; C: -9.3; D: 1.0; E: 17.3; F: -6.6

C/C(Nc1ccc(Cl)cc1)=C(/C#N)C(N)=O
  A: 9.7; B: -7.3; C: 5.8; D: -0.4; E: 2.9; F: 4.9

O=C(NCCCN1CCOCC1)c1ccc(Cl)c([N+](=O)[O-])c1
  A: -2.6; B: 7.5; C: nt; D: -0.2; E: -0.3; F: -10.6

Cc1cc(S(=O)(=O)NCc2ccc(N3CCN(C)CC3)cc2)c(C)s1
  A: 0.0; B: -1.6; C: -4.4; D: 0.1; E: 27.2; F: -16.2

C=CCn1c(SCC(=O)NC(=O)NCC(C)C)nnc1C1CCCCC1
  A: 10.0; B: 1.7; C: -12.2; D: 0.6; E: -0.1; F: -8.7

Cc1ccc(S(=O)(=O)Nc2ccc(SC(F)F)cc2)c(C)c1
  A: 4.8; B: -10.3; C: 13.1; D: -1.5; E: 1.7; F: -3.8

O=C(Nc1ccc(S(=O)(=O)N2CCCC2)cc1)c1cccnc1Cl
  A: -6.7; B: -11.0; C: -14.0; D: 0.0; E: 8.0; F: -3.7

CCN(Cc1ccc2c(c1)OCO2)C(=O)/C=C/c1cccc(Br)c1
  A: 3.3; B: 30.7; C: -8.5; D: 4.2; E: 3.5; F: -3.2

COCCCNC(=O)CN1C(=O)c2cccc3cccc1c23
  A: -5.3; B: -12.4; C: 2.6; D: 0.7; E: 0.6; F: -23.6

Cc1ccccc1-n1c(SCC(=O)N/N=C/C=C/c2ccccc2[N+](=O)[O-])nc2ccccc2c1=O
  A: -21.5; B: -13.4; C: 9.5; D: 0.7; E: -25.4; F: -5.7

Cc1ccc(C(=O)CSc2nsc(C)c2C#N)cc1
  A: 15.1; B: -16.4; C: -0.6; D: 1.0; E: 17.5; F: -1.6

CC1C(=O)c2ccccc2CC1C(=O)O (stereo unspecified)
  A: 7.3; B: 26.1; C: nt; D: -0.7; E: 0.0; F: -6.2

COc1ccc2[nH]c(C)c(C(=O)CN3CCN(C/C=C/c4ccccc4)CC3)c2c1
  A: -14.0; B: 2.5; C: 1.1; D: -0.4; E: -20.5; F: -22.4

CCOC(=O)c1c(C)oc2cc(Br)c(OC)cc12
  A: 5.5; B: -4.5; C: -0.2; D: 0.9; E: 4.4; F: 3.5

COCCCN1C(=O)C(CC(=O)NC(c2ccccc2)c2ccccc2)CC(C(=O)N(C)C)=C1C (stereo unspecified)
  A: -23.0; B: -2.2; C: nt; D: -0.1; E: 1.9; F: 2.3

C=C(c1ccccc1C)[n+]1ccccc1
  A: 3.6; B: -3.0; C: -17.0; D: -0.2; E: 7.0; F: -26.2

COc1ccc(OC)c(-n2c(-c3cc(-c4ccccc4)n[nH]3)n[nH]c2=S)c1
  A: -8.8; B: 18.7; C: 1.5; D: -0.3; E: -1.6; F: -20.5

Cc1nn(CC(=O)NCCC2=CCCCC2)c(C)c1[N+](=O)[O-]
  A: 1.8; B: -2.1; C: -4.9; D: -0.2; E: 0.3; F: -1.5

Cc1cc(S(=O)(=O)N2CCOCC2)ccc1NC(=O)c1ccc(F)cc1
  A: 7.3; B: 8.9; C: 12.5; D: 0.1; E: 1.0; F: -4.2

Cc1cccc([C@@H]2[C@@H]3C(=O)N(Cc4ccccc4)C(=O)[C@@H]3[C@]3(C)C(=O)N(c4cccc(F)c4)C(=O)N23)c1
  A: -2.0; B: -1.8; C: -0.7; D: -0.8; E: -1.5; F: -12.2

4 entries out of the list above, ordered by the number in Six1-Eya2 blk, falling.
| Molecule | Six1-Eya2 blk |
| --- | --- |
| CCOC(=O)c1c(C)oc2cc(Br)c(OC)cc12 | 4.4 |
| COCCCN1C(=O)C(CC(=O)NC(c2ccccc2)c2ccccc2)CC(C(=O)N(C)C)=C1C (stereo unspecified) | 1.9 |
| Cc1nn(CC(=O)NCCC2=CCCCC2)c(C)c1[N+](=O)[O-] | 0.3 |
| Cc1ccccc1-n1c(SCC(=O)N/N=C/C=C/c2ccccc2[N+](=O)[O-])nc2ccccc2c1=O | -25.4 |

An unsorted share of the library. About 0.95% of those tested had a hit in this group.
